Compound activity: PubChem BioAssay, National Center for Advancing Translational Sciences (NCATS)
CtBP-E1A inh – inhibitors of CtBP/E1A interaction; AlphaScreen GST-E1A/His-CtBP binding, 1536-well; stronger effect = lower value; control for the full effect not named in the record; activity change, % (test concentration not listed); 340,000 tested, 0.49% active; in the data active means activity change below about -65%; inconclusive means about -30% to -65%; inactive means above about -30%; further: on the % scale 0 is the no-effect control and ±100 the full control effect; compound concentration not given in the record
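Steps: dispense buffer (Tris pH 8.0, NaCl 300 mM, TCEP 1 mM, BSA, Tween 20); add 5X protein mix (GST-E1A, His-CtBP, 125 nM each); pin 23 nL compound; 2 h at 37 °C, dark; add 5X beads (50 ug/mL); 1 h; read.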
gsp agonist – agonists of gsp mutant (McCune-Albright syndrome). AID 624287. Potency, µM (doses to about 76.9 µM), for inactives: top-dose activation (cAMP increase), hits mostly activators. gsp mutant cells, cAMP HTRF, 30 min; control for the full effect not named in the record. 340,000 tested, 0.13% active; active = well fitted activation curve with a large enough effect; inconclusive = small, poorly fitted or top-dose-only effect, or another doubt; inactive = no such curve, though single readings can be large or run the other way; cell line not stated here;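 further: phosphodiesterase inhibitor Ro 20-1724 added with compounds to block cAMP breakdown; potency means the concentration at half of the fitted maximal effect; nearly all actives have a fitted effect of over 60% in size; about a fifth of the inactives were tested at one dose only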
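Cells in DMEM/10% FBS with G418 were pretreated with compounds in DMSO plus […] (300 uM stock) for 30 min at 37C. cAMP was measured by HTRF (cAMP-d2 plus anti-cAMP antibody-K) after 30 min at room temperature.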
Six1-Eya2 inh – inhibitors of human Six1/Eya2 interaction; Q15475+O00167; 360,000 tested, 0.56% active; activity change, % (concentration not given with the values); AlphaScreen GST-Six1/His-Eya2 binding, biochemical; stronger effect = lower value; control for the full effect not named in the record; in the data active = activity change below about -65%; inconclusive = about -30% to -65%; inactive = above about -30%; further: on the % scale 0 is the no-effect control and ±100 the full control effect
Target sequence (O00167 whole entry, looked up): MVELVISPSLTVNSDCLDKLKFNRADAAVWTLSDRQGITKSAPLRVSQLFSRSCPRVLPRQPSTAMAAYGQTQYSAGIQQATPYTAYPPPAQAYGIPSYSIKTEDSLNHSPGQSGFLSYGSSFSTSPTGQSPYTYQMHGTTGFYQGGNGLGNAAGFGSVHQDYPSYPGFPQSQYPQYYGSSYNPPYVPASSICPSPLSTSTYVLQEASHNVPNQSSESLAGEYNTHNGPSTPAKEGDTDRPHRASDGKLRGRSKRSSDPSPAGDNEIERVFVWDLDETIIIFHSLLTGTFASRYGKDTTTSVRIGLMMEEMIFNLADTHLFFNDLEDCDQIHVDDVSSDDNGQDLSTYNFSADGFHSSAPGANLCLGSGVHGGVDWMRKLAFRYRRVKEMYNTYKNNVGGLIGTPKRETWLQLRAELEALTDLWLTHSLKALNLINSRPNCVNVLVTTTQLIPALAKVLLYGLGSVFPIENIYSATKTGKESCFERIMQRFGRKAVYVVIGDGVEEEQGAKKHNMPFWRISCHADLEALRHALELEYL
Target sequence (Q15475 whole entry, looked up): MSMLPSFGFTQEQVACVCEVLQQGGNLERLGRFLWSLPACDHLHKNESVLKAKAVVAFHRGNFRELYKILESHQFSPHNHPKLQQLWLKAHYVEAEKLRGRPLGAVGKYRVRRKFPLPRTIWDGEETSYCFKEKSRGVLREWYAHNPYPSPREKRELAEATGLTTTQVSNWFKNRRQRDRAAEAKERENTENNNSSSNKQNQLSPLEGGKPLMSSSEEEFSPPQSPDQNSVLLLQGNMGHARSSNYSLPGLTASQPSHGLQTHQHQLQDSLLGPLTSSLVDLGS
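GST-Six1 + His-Eya2 (5X stock: 250/500 nM); Tris pH 8.0, 300 mM NaCl, 0.05% BSA, 0.02% Tween 20; GSH donor/Ni acceptor beads; 1 h 37 °C dark; AlphaScreen readout.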
D2 agonist – human D2 receptor agonism in beta-arrestin assay | P14416 | DiscoveRx PathHunter D2 beta-arrestin, luminescence, 90 min; 100% = 57 uM dopamine signal | activation, % (no concentration beside the values) | 360,000 tested, 0.084% active | AID 624465; in the data active = activation above about 40%; inconclusive = about 15% to 40%; inactive = below about 15%; further: compound concentration not given in the record; the text of the record calls up to 30% inactive
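DiscoveRx PathHunter D2 beta-arrestin cells (2,100/well) attached overnight, then compound-stimulated 90 min at 37 C in HBSS/10 mM HEPES/0.1% Tween-20 buffer; beta-galactosidase complementation read by luminescence after 1 h at ambient temperature. Dopamine 57 uM final (EC100) as control.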
D2 potentiator – positive allosteric modulators of human D2 dopamine receptor; DiscoveRx D2 beta-arrestin cells, luminescence, 90 min; 100% = 57 uM dopamine signal; potentiation, % (no concentration beside the values); 360,000 tested, 0.23% active; active = potentiation of 50% or more; inconclusive = 30% to 50%; inactive = 30% or less;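 further: compound concentration not given in the record; tested on top of an EC20 dose of dopamine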
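D2 cells co-treated with compound plus 50 nM dopamine (EC20) for 90 min at 37 deg C to detect potentiation. Beta-arrestin recruitment was read as enzyme-fragment luminescence after 1 h at ambient temperature. Full response was set by 57 uM dopamine.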
gsp antag – antagonists of gsp mutant (McCune-Albright syndrome); gsp-mutant cells, cAMP HTRF, 30 min; control for the full effect not named in the record; Potency, µM (series often up to 76.9 µM), for the others: at the top dose activity change, negative = inhibition, hits mostly inhibitors; 340,000 tested, 0.4% active; AID 624288; active = falling curve of any shape with a large fitted effect; inconclusive = falling curve, mostly with a smaller effect; inactive = flat or rising curve; cell line not stated here;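 further: intracellular cAMP measured with PDE inhibitor Ro 20-1724 present during compound exposure; potency means the concentration at half of the fitted maximal effect; on the % scale 0 is the no-effect control and ±100 the full control effect; nearly all actives have a fitted effect of over 65% in size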
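Cells, 2000/well, grown 16–24 h in DMEM 10% FBS with 0.5 mg/ml G418, then compounds plus […] (300 uM addition stock), 30 min at 37C. cAMP read by HTRF (cAMP-d2 and anti-cAMP antibody-K in lysis buffer) after 30 min RT.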
Numbers without * were called inactive; ? = inconclusive; · = no result given; [ ] = remark or other dose. Compounds were not picked by outcome; any-hit rate near 1.4%.

Every second line gives: gsp antag	CtBP-E1A inh	Six1-Eya2 inh	gsp agonist	D2 potentiator	D2 agonist
COc1ccc(NC(=O)Nc2cccc3ccccc23)cc1S(N)(=O)=O
    15%	-9	-3	-6%[15.4 µM]	-7	-5.0
CNC(=O)Nc1cc(C)nn1C
    0%	·	5	-2%	-2	-4.4
CC(OC(=O)c1ccc2c(=O)n3c(nc2c1)CCCCC3)C(=O)Nc1ncc(Cl)cc1Cl (configuration not stated)
    18%	-2	0	-4%[15.4 µM]	0	2.2
Cc1cc(C)cc(NC(=O)CC23CC4CC(C2)CC(n2nnc(C)n2)(C4)C3)c1
    -13%	-9	-1	7%	-10	-4.7
CCOC(=O)c1c(N2CCN(c3ccccc3)CC2)cc(C)nc1C
    -6%	·	4	-28%	-45	-3.0
c1ccc(-c2ccccc2OCCOCCN2CCNCC2)cc1
    14%	-22	-4	-20%[15.4 µM]	-14	-2.4
O=C(c1ccc2c(c1)OCO2)C1CCCN(C(=O)C2CCOCC2)C1 (configuration not stated)
    1%	4	-1	10%	-3	-0.9
CCc1ccc(NC(=O)c2cc(S(=O)(=O)N3CCCC3)ccc2F)cc1
    ·	-3	-1	-64%[inhibitor]	-9	0.6
COc1ccccc1C(=O)NCCC(=O)N(C)CC(=O)Nc1ccc(N2CCOCC2)cc1
    -3%	0	2	20%	-13	-1.3
Cc1cccc(N2CCN(S(=O)(=O)c3ccc4c(c3)CCC(=O)N4)CC2C)c1 (configuration not stated)
    7%	4	2	-4%	3	0.6
COc1ccc(CCNC(=O)CC(=O)N/N=C\c2ccc(OCC(N)=O)cc2)cc1OC
    ·	-2	0	-15%	-7	-1.2
Cc1cccc(NC(=O)C(=O)NCc2ccccn2)c1
    1%	-5	-6	-33%[inhibitor]	-4	0.9
CCCCSC1=C(C#N)C(c2ccccc2C)C(C(=O)OCC)C(=O)N1 (configuration not stated)
    -19%	8	3	4%	-1	0.0
CC(C)(C)c1ccc(OCC(=O)Nc2ccc(-c3nc4cccnc4o3)cc2)cc1
    1%[15.4 µM]	-1	4	23%	-5	-1.9
CC(C)NCC(O)Cn1c2c(c3ccccc31)CCc1c-2cnn1-c1ccccc1 (configuration not stated)
    2%	-27	-27	7%	-3	1.6
CCc1nn(CC(=O)N2CC(C)CC(C)C2)c(=O)c2cccn12 (configuration not stated)
    8%	·	-1	-5%	-4	0.7
Cc1cc(C)nc(N2CCCC(C(=O)NCc3ccccc3)C2)n1 (configuration not stated)
    1%	8	1	-41%[inhibitor]	-8	-2.4
Cc1ccccc1Nc1nc(-c2cccnc2)cs1
    -1%	-4	-8	?	-2	0.7
O=C(CSc1ncccc1-c1nc2ccccc2[nH]1)Nc1ccc2c(c1)OCCO2
    -14%	-25	-6	?	11	3.2
CCOC1CS(=O)(=O)CC1OCC (configuration not stated)
    19%	6	8	-19%	-10	-5.8
O=C(CSc1ccccc1C(=O)N1CCCCC1)NCC1CCCCC1
    9%	2	6	-14%	-15	-3.0
CC(=O)C1=CCC(c2ccc(C)o2)N(S(=O)(=O)c2ccc(C)cc2)C1 (configuration not stated)
    ·	-7	-12	·	-4	-5.6
CCC(C)(C)NC(=O)Nc1cc(Cl)ccc1OC
    -13%	3	5	-43%[inhibitor]	-44	-3.5
Cc1c(C(=O)OC2CCCCC2)sc2nc[nH]c(=O)c12
    -12%	3	-8	3%	-7	-1.4
COc1ccc(C(=O)N/N=C/c2ccc(N3CCOCC3)s2)cc1OC
    ?	-20	-11	6%	-13	-4.5
CC(C)c1ccc(NC(=O)COC(=O)C2CC3C=CC2C3)cc1 (configuration not stated)
    0%	·	24	-21%	-10	-10
O=C(c1cccs1)N1CCCC(c2nc3c(nnn3Cc3c(Cl)cccc3Cl)c(=O)[nH]2)C1 (configuration not stated)
    -1%	-3	-10	?	-6	-3.4
O=C(NCC1CCCO1)c1ccc2c(=O)n(Cc3ccco3)c(SCC(=O)N3CCCC3)nc2c1 (configuration not stated)
    ?	-1	-3	11%	-3	-0.4
Cc1cc(-n2c(C)cc(C(=O)CSc3nnc4sc5ccccc5n34)c2C)no1
    7%	3	-1	-19%	-7	-3.2
O=c1c2c(-c3ccco3)csc2nc(SCc2cn3cccnc3n2)n1-c1ccccc1
    29%	-7	?	8%	-5	-1.9
COc1ccc([C@H]2CC(=O)C=C(c3cccc(OC)c3OC)C2)cc1OC
    -6%	-3	-5	·	2	0.9
Cc1ccc(OCC(=O)OC(C)CN2CCCCC2)cc1 (configuration not stated)
    5%	2	4	-1%	-1	-1.9
Cc1cccc(-n2c(N)cc(=O)[nH]c2=S)c1
    7%	3	6	6%	-2	-3.7
COc1ccccc1N1CCN(C(=O)C(=O)c2c(C)n(C)c3ccccc23)CC1
    -14%	-27	-9	29%	-20	-4.0
CC(=O)OCCN(CCCn1c(-c2ccncc2)nc2ccccc21)c1nc(CN2CCCCC2)cs1
    -5%	-1	-1	·	-20	-2.6
COc1ccc(Cl)cc1NC(=O)N1CCN(c2ccccc2OC)CC1
    -4%	8	4	-13%[15.4 µM]	-9	-7.1
COc1ccc(CN2CCC(n3nccc3NC(=O)CCc3ccccc3)CC2)c(C)c1C
    -1%	·	11	-6%	-1	2.8
COC(=O)c1cn(C(=O)c2ccc(F)cc2)c2ccccc12
    0%	7	6	-9%	0	-4.2
O=c1[nH]nc(SCCS(=O)(=O)c2ccc(F)cc2)n1-c1ccccc1C(F)(F)F
    -1%	7	2	-17%	-2	2.8
COC(=O)c1ccc(N2C(=O)CC(NCc3ccccc3)C2=O)cc1 (configuration not stated)
    3%	2	2	-12%	-16	-3.3

Part of the list above, with values ahead of the structure:
gsp antag,CtBP-E1A inh,Six1-Eya2 inh,gsp agonist,D2 potentiator,D2 agonist,SMILES
·,-7,-12,·,-4,-5.6,CC(=O)C1=CCC(c2ccc(C)o2)N(S(=O)(=O)c2ccc(C)cc2)C1 (configuration not stated)
-13%,3,5,-43%[inhibitor],-44,-3.5,CCC(C)(C)NC(=O)Nc1cc(Cl)ccc1OC

Remaining list, next part
Every second line gives: gsp antag	CtBP-E1A inh	Six1-Eya2 inh	gsp agonist	D2 potentiator	D2 agonist
NC(=O)CC(NC(=O)Cc1cccc2ccccc12)c1ccc(N2CCN(c3ccccc3)CC2)c([N+](=O)[O-])c1 (configuration not stated)
    0%	-4	0	·	-6	-2.3
CCOC(=O)C(=CNc1ccc2c(c1)CCN2C(C)=O)C(=O)OCC
    -17%	-10	-5	-4%	13	9.8
CCC(=O)c1ccc(OCC(O)CN(CCc2ccccc2)Cc2ccccc2)cc1 (configuration not stated)
    -13%	-3	7	8%	-18	-0.9
COc1ccc(NC(=O)C2COc3ccccc3O2)cc1S(=O)(=O)N1CCOCC1 (configuration not stated)
    -1%	25	-15	-122%[inhibitor]	-12	-4.6
O=C(O)CN1C(=O)NC2(CCOc3ccccc32)C1=O (configuration not stated)
    10%	4	-1	?	-10	-2.0
Cc1cc(C)nc(NC2=NCC(=O)N2c2cccc(Cl)c2)n1
    1%	9	3	-46%[inhibitor]	8	6.2
Cc1[nH]c(=O)[nH]c(=O)c1S(=O)(=O)N1CCCc2ccccc21
    -9%	·	6	20%	-5	-1.4
COc1ccc(NC(=O)COC(=O)c2ccc(N3CCCC3=O)cc2)cc1OC
    8%	2	-2	0%	-5	-3.0
Cc1cc(-c2nnco2)c(C)n1-c1ccc(F)cc1
    14%	-5	-14	-2%	-3	-2.2
Cc1cccc(OC(=O)c2ccncc2)c1C
    2%	·	-2	-104%[inhibitor]	-4	-4.3
Cc1ccc(S(=O)(=O)Nc2cccc(C(=O)NCCCN3CCOCC3)c2)cc1F
    8%	0	7	5%[15.4 µM]	-7	-6.7
CC#CC(=O)N1CCC(CO)(CCc2ccccc2)CC1
    2%	7	4	-10%	-6	-2.3
CCc1cccc(C)c1NC(=S)NCc1ccc2c(c1)cc(C)n2C
    5%	-26	?	?	-11	-4.0
O=C(COc1cccc(C(F)(F)F)c1)Nc1cccnc1
    4%	1	1	-27%	-4	0.8
CCOc1ccc(-c2noc(-c3cccnc3)n2)cc1OCC
    -4%	2	0	15%[15.4 µM]	-1	-0.9
COc1cc(C2C(C#N)=C(N)Oc3c2ccc2ccccc32)ccc1OCC(=O)Nc1cccc(C)c1 (configuration not stated)
    2%	2	-4	25%[15.4 µM]	-4	0.9
CN1C(=O)N(CC(=O)NCc2ccc(Cl)cc2Cl)C(=O)C12CCCCC2
    1%	-11	-6	?	-2	-1.9
Cc1nc2ccccc2n1CCOc1ccc(F)cc1
    -7%	·	10	0%	-31	0.6
CSc1ccc(C(C(C(=O)c2cccs2)N2CCOCC2)N2CCOCC2)cc1 (configuration not stated)
    -25%	-7	-7	3%	8	-2.7
NNC(=O)CNC(c1ccccc1)c1cc(Br)ccc1NC(=O)c1ccc(Br)cc1 (configuration not stated)
    -4%	-3	6	-3%[15.4 µM]	-35	-4.7
Nc1nnc(CCOc2ccccc2Cl)s1
    13%	2	-1	25%	1	3.1
COC(=O)c1ccc(CSc2nc(-c3ccccc3)cs2)o1
    -1%	65	21	2%	-12	-0.6
CC(OC(=O)/C=C/c1cccs1)C(=O)Nc1ccc(C(N)=O)cc1 (configuration not stated)
    4%	-8	-21	-40%[inhibitor]	-2	2.0
O=C(N/N=C/C=C/c1ccccc1)c1cc2c(ccc3ccccc32)o1
    -1%	-1	1	-6%	-7	0.5
O=C(Nc1ccccc1)c1ccc(NCCN2CCOCC2)c(S(=O)(=O)N2CCOCC2)c1
    -22%	-3	-1	3%	-6	0.7
Cc1ccccc1NC(=S)N(Cc1ccccc1)Cc1cccnc1
    -10%	-17	?	1%[15.4 µM]	-15	-5.3
Cc1cc(C(=O)COC(=O)c2ccc[nH]c2=O)c(C)n1-c1ccccc1F
    7%	·	-2	2%	-2	-0.7
CCc1sc(C(=O)Nc2ncccc2O)cc1C
    -10%	-4	-5	5%	-10	-6.2
CCCNC(=O)COC(=O)c1cc(C)nc2ccccc12
    3%	·	5	27%	-9	0.8
COc1cc2ccccc2cc1C(=O)Nc1ccccc1Cl
    -10%	4	13	32%	-3	9.0
COc1ccc(COC(=O)N/N=C(\C)CC(=O)Nc2c(C)cc(C)cc2C)cc1
    4%	3	-17	3%	11	-3.5
COc1ccc(CNC(=O)C2CC(C)=C(C)CC2C(=O)O)cc1 (configuration not stated)
    -12%	2	5	4%	-7	0.0
